# Source: PubChem (National Center for Advancing Translational Sciences (NCATS))
# TRPV1 potentiator – human TRPV1 potentiation | potentiation, % at 8.33 µM | TRPV1-expressing cells, Fluo-8 calcium influx, capsaicin EC20 potentiation; host cell line not named in the record; control for the full effect not named in the record | AID 540277 | 0.02% of 320,000 active; active means potentiation above 80%; inconclusive means 30% to 80%; inactive means below 30%; note: 0% is about no effect
# Target sequence (Q8NER1 whole entry, looked up): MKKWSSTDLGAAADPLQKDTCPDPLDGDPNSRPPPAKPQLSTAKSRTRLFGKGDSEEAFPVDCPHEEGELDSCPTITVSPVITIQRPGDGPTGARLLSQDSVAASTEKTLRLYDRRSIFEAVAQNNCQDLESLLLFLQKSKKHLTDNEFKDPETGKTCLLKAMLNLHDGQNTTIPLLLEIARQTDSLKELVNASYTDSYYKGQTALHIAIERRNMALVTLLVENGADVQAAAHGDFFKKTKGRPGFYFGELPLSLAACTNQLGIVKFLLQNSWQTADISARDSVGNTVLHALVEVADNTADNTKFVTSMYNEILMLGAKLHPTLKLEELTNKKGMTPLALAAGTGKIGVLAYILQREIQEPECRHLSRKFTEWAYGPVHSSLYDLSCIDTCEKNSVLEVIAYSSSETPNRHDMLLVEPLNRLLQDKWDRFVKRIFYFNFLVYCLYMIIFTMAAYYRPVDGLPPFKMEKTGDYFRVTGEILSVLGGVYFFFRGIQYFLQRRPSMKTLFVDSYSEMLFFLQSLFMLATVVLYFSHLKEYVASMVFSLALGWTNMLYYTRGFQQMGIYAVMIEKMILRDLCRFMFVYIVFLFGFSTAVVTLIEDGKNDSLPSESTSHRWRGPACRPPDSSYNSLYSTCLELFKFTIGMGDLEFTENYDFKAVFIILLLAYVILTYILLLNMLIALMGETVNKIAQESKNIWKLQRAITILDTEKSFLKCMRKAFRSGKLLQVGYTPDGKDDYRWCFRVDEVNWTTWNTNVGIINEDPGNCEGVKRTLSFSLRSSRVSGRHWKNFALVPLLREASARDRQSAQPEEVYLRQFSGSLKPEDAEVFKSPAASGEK
#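 Fluo-8 calcium influx in TRPV1-expressing cells, kinetic read (ex 480/em 520 nm). Compound added and read 3 min for agonist activity, followed by capsaicin at EC20 final and 2 min further read for enhancement.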
# gsp antagonist – gsp mutant antagonism; 0.4% of 340,000 active; gsp-mutant cells, cAMP HTRF, 30 min; control for the full effect not named in the record; Potency, µM (highest dose often 76.9 µM), without a hit: at the highest dose activity change, negative = inhibition, actives largely listed as inhibitors; active = falling curve of any shape with a large fitted effect; inconclusive = falling curve, mostly with a smaller effect; inactive = flat or rising curve; cell line not stated here;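 note: intracellular cAMP measured with PDE inhibitor Ro 20-1724 present during compound exposure; potency is the fitted concentration of half-maximal effect; % is set by controls: 0 for no effect and ±100 for the full control effect; nearly all actives have a fitted effect of over 65% in size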
#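 Cells in G418 medium, seeded 16-24 h, 37C; buffer exchange to DPBS + 1 mM CaCl2, 0.5 mM MgCl2, 0.05% BSA; cpds in DMSO + […] (300 uM stock), 30 min 37C; HTRF cAMP detection.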
# Menin-MLL FL inh – displaces fluorescein MLL peptide from human menin | Fluorescence polarization, fluorescein-MLL peptide displacement from menin | FP activity change, % at 61.4 µM | 290,000 tested, under 10 active | AID 1766; inconclusive = falling polarisation curve, or a change in total fluorescence; inactive = total fluorescence flat and polarisation flat or rising; no compound was filed as active; the % refers to the polarisation; negative = inhibition;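 note: % of control where 0% means no effect; inhibitors lower the polarisation; unlabelled MLL peptide was the positive control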
# Sfp inh – inhibitors of Bacillus subtilis Sfp phosphopantetheinyl transferase. Q9F4F7. Biochemical Sfp PPTase activity, qHTS. Potency, µM, without a hit: max response, negative = inhibition, actives largely listed as inhibitors. 3.5% of 310,000 active; active = well fitted inhibition curve with a large enough effect; inconclusive = small, poorly fitted or top-dose-only effect, or another doubt; inactive = no such curve, though single readings can be large or run the other way;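 note: the enzyme is Sfp with the accession as filed and its product quenches rhodamine fluorescence; potency is the fitted concentration of half-maximal effect; 0% = enzyme reaction without inhibitor and -100% = no enzyme wells; top concentration of the series not given in the record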
#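 Fluorescence-quenching assay: 15 nM Sfp-PPTase preincubated 15 min at room temperature with compound, then 5 uM rhodamine-CoA and 12.5 uM BHQ-2-labelled YbbR peptide added. Fluorescence (ex 525/em 598 nm) read at start and after 30 min; difference gives rate.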
# TRPML1 inh – human mucolipin-1 channel inhibition | Q9GZU1 | TRPML1-inducible cells, Ca2+ dye fluorescence, FDSS; active compounds read low; inhibition of EC80 agonist-evoked calcium signal | activity change, negative = inhibition, % (concentration not given with the values) | 0.02% of 390,000 active | AID 624415; in the data active means activity change below about -50%; inconclusive means about -30% to -50%; inactive means above about -30%;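 note: stimulus is agonist 54-4 at its EC80 concentration; % is set by controls: 0 for no effect and ±100 for the full control effect; the text of the record puts the active cut at -80%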
#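 TRPML1-DL cells, Tet-induced overnight (~16 h, 37 °C) at 1,500 cells/well, were loaded with Ca8 no-wash dye plus quencher for 45-90 min at room temperature. Compounds were pinned during FDSS kinetic reading; agonist 54-4 at EC80 (4 uM final) then added.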
# gsp ag – agonists of gsp mutant (McCune-Albright syndrome); gsp mutant cells, cAMP HTRF, 30 min; control for the full effect not named in the record; 0.13% of 340,000 active; Potency, µM (highest dose often 76.9 µM), inactives show top-dose activation (cAMP increase), most hits filed as activators; AID 624287; active = well fitted activation curve with a large enough effect; inconclusive = small, poorly fitted or top-dose-only effect, or another doubt; inactive = no such curve, though single readings can be large or run the other way; cell line not stated here;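 note: phosphodiesterase inhibitor Ro 20-1724 added with compounds to block cAMP breakdown; potency is the fitted concentration of half-maximal effect; nearly all actives have a fitted effect of over 60% in size; about a fifth of the inactives were tested at one dose only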
#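 Cells stably selected in G418 were plated at 2000/well, grown 16-24 hr, then given compounds in DMSO with the PDE inhibitor […] (300 uM solution added) for 30 min at 37C; cAMP was read by HTRF.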
# ClpP mod – qHTS Assay for Activators of ClpP | ATP-dependent Clp protease proteolytic subunit (Bacillus subtilis (strain 168)), P80244 | purified B. subtilis ClpP, FRET peptide cleavage, 20 min | Potency, µM (highest dose often 57.5 µM), for inactives: at the top dose activity change, negative = active | 1.9% of 340,000 active; active = well fitted falling curve with a large enough effect; inconclusive = small, poorly fitted or top-dose-only effect; inactive = no such curve, though single readings can be large or run the other way; note: potency is the fitted concentration of half-maximal effect; the source files actives as falling curves though it sought activators and does not explain the sign; nearly all actives have a fitted effect of over 65% in size; many hits overshoot -100%
# Target sequence (P80244 whole entry, looked up): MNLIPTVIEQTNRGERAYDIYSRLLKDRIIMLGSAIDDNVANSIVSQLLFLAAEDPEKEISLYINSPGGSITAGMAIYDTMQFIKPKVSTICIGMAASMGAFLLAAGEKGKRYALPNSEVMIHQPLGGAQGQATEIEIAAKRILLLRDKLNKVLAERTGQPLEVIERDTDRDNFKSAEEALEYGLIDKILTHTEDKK
#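 Buffer: 100 mM Tris/HCl pH8, 100 mM KCl, 0.05% low protease BSA, 2.5% glycerol, 0.01% Tween-20. ClpP 10 microg/mL final; 20 min RT; delta FRET normalized to ADEP and DMSO controls.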
# * hit, by the source's call; ? = inconclusive; . = no result given; [ ] = dose if it differs, or a comment. Outcome played no part in choosing rows. Share with any hit: about 4.9%.
compound	TRPV1 potentiator	gsp antagonist	Menin-MLL FL inh	Sfp inh	TRPML1 inh	gsp ag	ClpP mod
COC(=O)c1c(N2C(=O)[C@H]3[C@@H](C2=O)[C@]2(C(=O)Nc4c2ccc(C)c4C)N2CCC[C@@H]32)sc(C)c1C	-7	-5%	17	-6%	-16	0%	1.0%
Cc1ccc2nc(C3CCCN(C(=S)Nc4ccccc4C)C3)[nH]c2c1 (configuration not stated)	8	-5%	1.5	-2%	-3	-33%[inhibitor]	1.8%
Cc1noc(C)c1C(=O)Nc1ccc(S(=O)(=O)N2CCCCC2)cc1	2	2%	.	19%	12	-57%[inhibitor]	-1.0%
COc1ccc([C@H]2CC(=O)C=C(c3cc(OC)ccc3OC)C2)cc1	-8	2%	.	.	22	-3%	-4.3%
Cc1occc1-c1nnc(SCC(=O)NCc2cccs2)n1-c1ccc(F)cc1	-2	-21%	-1.3	?	-8	22%	1.7%
COc1ccccc1NC(=O)c1ccc(COc2ccccc2Br)o1	-9	-6%	-2.7	-6%	1	-8%	?
COc1ccc(-c2cc(C)nc3c(-c4ccccc4)cnn23)cc1	-7	-26%	?	6%	-5	-1%	3.3%
NC(=O)c1ccccc1NC(=O)c1ccc2ccccc2c1	17	-10%	-4.5	17%	-3	-11%[15.4 µM]	-2.7%
COc1ccc(OC)c(-c2csc(NC(=O)COC(=O)C3(C)CC3(Cl)Cl)n2)c1 (configuration not stated)	-24	?	.	.	-2	1%	-6.0%
CCN(C(=O)COC(=O)C12CC3CC(CC(O)(C3)C1)C2)c1c(N)n(Cc2ccccc2)c(=O)[nH]c1=O	.	4%	.	.	14	-1%	-0.3%
COc1cc(C(=O)NC(C)CCn2cccn2)ccc1OC1CCN(C(C)=O)CC1 (configuration not stated)	-12	18%	.	27%	-20	-28%	-1.8%
COC(=O)NCCc1cc(OC)c(OC)cc1S(=O)(=O)N1CC(=O)Nc2ccccc21	-15	1%	0.6	13%	18	-5%	.
CCOc1ccc(NC(=O)CN(C)C(=O)c2ccc(N3CCCCCC3)c([N+](=O)[O-])c2)cc1OCC	-8	-9%	.	.	1	-22%	1.0%
O=C(C1CCCO1)N1CCN(C(=S)Nc2ccccc2)CC1 (configuration not stated)	-1	13%	5.4	-21%	-2	-42%[inhibitor]	-1.7%
O=C(O)C1(c2ccccc2)CCN(S(=O)(=O)c2ccccc2)CC1	17	-4%	.	15%	62	-4%[15.4 µM]	.
COc1ccccc1N1N=C(c2cccs2)CC1c1ccccc1 (configuration not stated)	1	6%	1.0	-25%	9	?	?
Cc1nc2ccc(NC(=O)c3cc(S(=O)(=O)N(C)c4ccccc4)ccc3Cl)cc2s1	-14	-7%	.	9%	7	-4%[15.4 µM]	-0.6%
COc1ccc(C(CNC(=O)c2cccc(S(=O)(=O)N(C)c3ccccc3)c2)N2CCCC2)cc1 (configuration not stated)	2	4%	.	.	-1	15%	-2.3%
CC(=O)N(C)c1ccc(C(O)(C(F)(F)F)C(F)(F)F)cc1	-12	3%	-2.9	9%	17	45%	.
CC(C)(C)NC(=O)COC(=O)c1ccc2c(c1)C(=O)N(Cc1ccco1)C2=O	7	-1%	4.8	4%	0	-8%[15.4 µM]	1.2%
CC(C)c1ccc(NC(=S)NNc2ccc(Cl)c(C(=O)O)c2)cc1	-8	-1%	6.2	-24%	.	25%	-2.4%
CN(C(=O)COc1ccc(Cl)cc1Br)C1CCCCC1	-3	-4%	0.4	5%	-4	-1%[15.4 µM]	-2.4%
CSC(=NC#N)N1CCN(c2ccc(Cl)cc2)CC1	-9	3%	1.1	19%	12	?	-1.6%
c1ccc(-n2ncc3c(N4CCN(c5ccccn5)CC4)nc(N4CCCCCC4)nc32)cc1	10	4%	0.3	13%	22	-8%	?
OCCNc1nc(N2CCCC2)nc(N2CCCC2)n1	9	11%	4.3	1%	54	-7%	-1.9%
CC(C)=CCN1CCN(Cc2ccc3nsnc3c2)CC1CCO (configuration not stated)	10	14%	1.1	14%	6	3%[15.4 µM]	1.6%
COC(=O)c1c(C)[nH]c(C(=O)C(C)OC(=O)c2c(C)noc2C)c1C (configuration not stated)	-3	6%	.	.	6	?	2.1%
COC(=O)CN1C(=O)COc2ccc(S(=O)(=O)N3CCCC3)cc21	-3	0%	2.2	12%	4	-11%	1.1%
COc1cccc(OCc2cc(C(=O)N(C)C3CCOCC3)no2)c1	-5	-8%	.	3%	-11	9%	0.5%
CCCCn1[nH]c(-c2ccccc2)cc1=O	13	-9%	-1.3	4%	4	13%	-5.7%
CCCCCCNC(=O)c1c(O)c2cccc3c2n(c1=O)CCC3	-5	4%	2.7	8%	55	25%	?
O=C(C1COc2ccccc2O1)N1CCN(c2ccccc2O)CC1 (configuration not stated)	-11	2%	.	.	6	10%	-1.7%
CC(C)C[C@H]1CN=C(Nc2ccccc2)N1CCCC1CCCCC1	-5	0%	1.2	-8%	27	0%	-0.1%
C[C@H](NC(=O)C1CCN(S(=O)(=O)c2ccccc2)CC1)C(=O)NC1CC1	.	.	.	.	0	1%	-3.0%
Nc1cc2nc[nH]c2cc1N	9	3%	-14	6%	-3	2%[15.4 µM]	.
COc1ccc(CC(=O)Nc2cc3oc4ccccc4c3cc2OC)cc1	26	?	-1.4	-14%	5	0%	-20%
Cc1ccc(C(=O)N2CC(=O)Nc3ccc(F)cc3C2c2ccccc2)cc1[N+](=O)[O-] (configuration not stated)	-5	-12%	-0.4	12%	-5	-10%	0.7%
O=C(CSc1nnc(Cc2cc(=O)[nH]c(=O)[nH]2)n1-c1ccc(F)cc1)N1CCCCC1	.	12%	-14	12%	-7	-29%	-0.1%
CCN(CC)c1ccc(NC(=O)CSc2nc3nc(C)cc(C)c3c(=O)[nH]2)cc1	3	7%	.	.	-6	-12%[15.4 µM]	.
CCOc1ccc(-c2nnc(-c3ccncc3)o2)cc1OCC	-4	0%	-0.1	33%[activator]	-8	-1%	.
CCC(=O)Nc1ccc2c(c1)ncn2-c1ccccc1	-36	-13%	1.9	-9%	2	-4%	-0.4%
NC(=O)CSc1nc2sc(-c3ccccc3)cc2c(=O)n1N	?	-10%	0.6	-5%	6	-6%	57%
c1ccc2cc(CCCc3cc4ccccc4cn3)ncc2c1	-9	-4%	.	.	-11	7%	-7.4%
COc1cccc(-c2csc(NNC(=O)c3cccs3)n2)c1	-10	3%	4.5	-19%	-29	14%	-4.7%
O=C(NCCN1CCCC1=O)C1CCC(=O)N(CCc2ccc(Cl)cc2)C1 (configuration not stated)	10	1%	1.7	1%	-11	6%	-1.7%
COc1cc(C(F)(F)F)c(C(=O)N(C)Cc2cc(Cl)cc(Cl)c2)cn1	-16	-7%	2.7	-6%	29	1%	0.3%
Fc1ccc(NC(=S)NCCc2ccc(Cl)cc2)cc1	22	3%	4.0	1%	52	12%	-2.0%
Cc1nn(C)cc1C(C(=O)NC1CCCCC1)N(C(=O)Cn1nnc2ccccc21)c1ccc(F)cc1 (configuration not stated)	-4	-3%	0.2	4%	13	-2%	0.4%
C=C(C)CN(CC)c1nc(N)c2c(N)nc3c(c2c1C#N)CC(=O)N3C12CC3CC(CC(C3)C1)C2	3	-2%	1.3	-12%	-3	14%	16%
CCOc1ccc(-n2c(=O)c3sccc3n(Cc3ccc(C)cc3)c2=O)cc1	12	-4%	-0.9	-19%	-13	-2%	-0.1%
CC(C)Oc1ccccc1-c1nc(SCC(=O)O)n[nH]1	-23	-2%	2.1	9%	-3	-1%	-6.1%
COc1cc(C(=O)Nc2ccc(Cl)c(C(F)(F)F)c2)cc(OC)c1OC	16	-21%	2.4	10%	-6	?	-2.4%
CC(C)C[C@@H](CN1CCCC1CN1C(=S)NC[C@@H]1Cc1ccc(O)cc1)N1C[C@H](Cc2ccccc2)N(CC2CCCCC2)C1=S (some centres not stated)	.	-4%	.	.	-3	.	-2.0%
O=c1c2sc(-c3ccccc3)cc2nc2n1CCCCC2	-17	-6%	3.5	13%	22	6%[15.4 µM]	.
CCCOC(=O)C1[C@H]2C(=O)N(CCCOC)C[C@]23C=C[C@H]1O3 (some centres not stated)	-15	13%	-1.5	24%	1	2%	-0.7%
Cc1nc(N2CCOCC2)c2c(C)c(C(=O)Nc3ccccc3Cl)sc2n1	-25	6%	-1.0	?	-14	6%[15.4 µM]	.

# Next part
compound	TRPV1 potentiator	gsp antagonist	Menin-MLL FL inh	Sfp inh	TRPML1 inh	gsp ag	ClpP mod
O=C1/C(=C/c2ccccn2)SC(=S)N1c1cccc(O)c1	?	-10%	0.2	5%	-6	-15%	-0.3%
COc1ccc(NC(=S)NNC(=O)c2ccc(S(=O)(=O)N3CCOCC3)cc2)cc1	0	-7%	-1.5	30%	12	11%[15.4 µM]	.
CCn1nc(C)c(NC(=O)/C=C/c2cnn(C)c2)c1C	-2	9%	-1.2	13%	27	0%	-1.3%
COc1ccc(CCN2CC(C#N)=C3c4cc(OC)c(OC)cc4CCN3C2)cc1OC	.	-10%	4.1	-9%	12	10%	-5.1%
O=C(NCc1ccco1)C1CN(S(=O)(=O)c2ccccc2)CCN1S(=O)(=O)c1ccccc1 (configuration not stated)	-12	-3%	0.6	10%	-6	0%	1.4%
Cc1nc2ccccc2c(=O)n1/N=C/c1cn(-c2ccccc2)nc1-c1cccs1	-8	-19%	2.0	-24%	2	4%	8.9%
Cc1cc(C)n2nc(SCC(=O)NC(=O)c3ccccc3Cl)nc2n1	0	7%	.	.	-10	8%	5.1%
Cc1cccc2cc(C#N)c(SCC(=O)N3CCC(C)CC3)nc12	-13	2%[15.4 µM]	5.0	-11%	-27	14%	-5.3%
COc1ccc(NC(=O)N(C)[C@H]2C[C@H]3c4[nH]c5ccccc5c4CCN3C(=O)[C@H]2CO)cc1	.	.	.	.	7	?	-13%
